# From PubChem
# AmpC nodet inh: AmpC beta-lactamase inhibition, detergent-free assay. 71,000 tested, 1.8% active. AmpC nitrocefin hydrolysis, absorbance 480 nm, no detergent; potencies from a single point are estimates. P00811. Potency, µM (doses to about 28.7 µM), without a hit: at the top dose activity change, negative = inhibition; active = falling curve, for most hits resting on a single point; inconclusive = weak or doubtful change; inactive = flat or rising curve; further: % of control where 0% means no effect; about half of the hits show no inhibition at the top dose; a quarter of the inactives give rising signals
# Target sequence (P00811 whole entry, looked up): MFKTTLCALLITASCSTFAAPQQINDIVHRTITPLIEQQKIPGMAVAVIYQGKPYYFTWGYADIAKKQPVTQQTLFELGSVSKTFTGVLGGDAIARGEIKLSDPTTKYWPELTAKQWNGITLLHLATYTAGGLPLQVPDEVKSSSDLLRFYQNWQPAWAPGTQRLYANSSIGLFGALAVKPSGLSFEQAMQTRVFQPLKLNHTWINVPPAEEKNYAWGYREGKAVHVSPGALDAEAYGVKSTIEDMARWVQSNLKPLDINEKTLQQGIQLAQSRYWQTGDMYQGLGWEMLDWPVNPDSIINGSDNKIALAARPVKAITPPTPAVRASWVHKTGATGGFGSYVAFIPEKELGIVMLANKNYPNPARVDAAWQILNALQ
#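 AmpC, 20 mM phosphate pH 7.0; 15 min cpd preinc, RT; start with nitrocefin (800 uM stock); A480 kinetic read, 20 s intervals, 4 min. No-enzyme wells = negative control.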
# Starred values were filed as active, the others as inactive; [ ] = remark or other dose. Potency means the concentration at half of the fitted maximal effect.
nr	SMILES	AmpC nodet inh
1	COCCn1nnnc1C(c1ccccc1Cl)N1CCN(c2ccccc2OC)CC1 (centres undefined)	85%
2	O=C(Nc1cccnc1)c1cc(-c2ccc3c(c2)OCO3)on1	10%
3	CNC(=O)CSc1nnc(-c2ccc(S(=O)(=O)N3CCCC3)cc2)n1-c1cccc(C)c1C	129%
4	CCc1cccc(NC(=O)CS(=O)Cc2nc(-c3ccc(C)cc3)oc2C)c1 (centres undefined)	83%
5	O=C(CSc1nnc(-c2ccccn2)n1Cc1ccccc1)N1CCCC1	35%
6	CC1=C(C(=O)Nc2ccccn2)C(c2ccc(F)cc2)n2ncnc2N1 (centres undefined)	9%
7	CCc1[nH]nc2c1C1(CCN(C(=O)c3ccccc3)CC1)C(C#N)=C(N)O2	-1%
8	COc1cc(OC)nc(NC(=O)CS(=O)(=O)c2ccccc2)n1	4%
9	COc1ccc(CCNC(=O)c2c(O)c3cccc4c3n(c2=O)CC4)cc1OC	114%
10	C[C@@]12C=CC(=O)C=C1CC[C@H]1[C@H]3CC[C@](O)(C(=O)CO)[C@]3(C)CC(=O)[C@@H]12	16%[12.8 µM]
11	CCCCCOC(=O)CSc1nc2c(c(=O)[nH]c(=O)n2C)n1CCc1ccccc1	-2%
12	Fc1ccc(-c2csc3nnc(SCc4cccnc4)n23)cc1	1%
13	Cc1cccc(NC2=NCC(=O)N2Cc2ccccc2)c1	0%
14	CC1CC(=O)O1 (centres undefined)	-5%
15	O=C(Nc1ccc(N2CCN(C(=O)c3ccco3)CC2)cc1)c1ccccc1F	13%
16	Nc1nc(-c2ccccc2)c(-c2ccccc2)c(-c2nc(N)nc(-c3ccccc3)c2-c2ccccc2)n1	-4%[5.75 µM]
17	COCCNC(=O)c1cc2cc(Br)cc(OC)c2oc1=O	-1%
18	Cc1nc(-c2cccc(S(=O)(=O)N3CC(C)OC(C)C3)c2)cs1 (centres undefined)	38%
19	CCN(CC)CCN1C(=O)C(=O)/C(=C(/O)c2ccc(OC)c(OC)c2)C1c1ccccn1 (centres undefined)	73%
20	COC(=O)COc1ccc(NC(=O)C2CCCO2)cc1 (centres undefined)	3%
21	COC(=O)c1ccccc1NC(=O)NCc1ccc2c(c1)OCO2	-15%
22	CC1Oc2ccccc2N(CC(=O)c2cccc(Cl)c2)C1=O (centres undefined)	11%
23	Cc1ccc2[nH]c(C(=O)O)c(-c3ccccc3)c2c1	-6%
24	C=CCn1c(O)c(C(C)=Nc2ccc(C(=O)OCC)cc2)c(=O)[nH]c1=O	20%
25	CCN1C(=O)c2cccc3c(S(=O)(=O)Nc4nc(C)cs4)ccc1c23	-7%
26	O=C(CSC1=NCCN1)Nc1ccccc1	-2%[5.75 µM]
27	CN(C)CCCN(C(=O)c1cccs1)c1nc(-c2ccccc2)cs1	65%
28	O=[n+]1c2c(n([O-])c3c1CCCC3)CCCCC2	-16%
29	O=C(NCc1nc2ccccc2[nH]1)c1ccco1	-9%
30	O=C(OCC#CCSc1nnc(-c2ccccc2)o1)c1ccco1	3%
31	CCN1C(c2ccc(F)cc2)=CS/C1=C(\C#N)c1nnc2n1-c1ccccc1SC2	34%
32	CC(=O)[O-].CC(=O)[O-].O.O.[Cd+2]	-8%
33	O=C(Cc1cccs1)Nc1nncs1	-18%
34	O=C(c1nn2cccnc2c1Cl)N1CCN(c2ccccc2)CC1	13%
35	CCCn1c(SCC(=O)NCCc2ccc(OC)c(OC)c2)nc2c1c(=O)n(C)c(=O)n2C	24%
36	CN1C(=O)/C(=C2/C=Cc3ccccc3N2CCCS(=O)(=O)O)SC1=S	-2%
37	CC(C)(C)c1nc(NCCN2CCOCC2)c2nnn(Cc3ccccc3Cl)c2n1	111%
38	Cc1cc2c(ccc3c2no[n+]3[O-])nn1	1%
39	Cc1cccc(CCNS(=O)(=O)c2ccc3c(c2)oc(=O)n3C)c1	-4%
40	Cc1cc(C)n2nc(C)[n+](C)c2n1	-1%
41	COc1ccc(C(CC(=O)NCCCN2CCOCC2)NS(=O)(=O)c2ccc(C)cc2)cc1 (centres undefined)	19%
42	c1ccc(Cc2nnc3sc(C4COc5ccccc5O4)nn23)cc1 (centres undefined)	36%
43	O=c1c2[nH]c3cccc(Cl)c3c2ncn1CCN1CCCCC1	15%
44	O=C(CSC1=NCCN1)C1COc2ccccc2O1 (centres undefined)	3%
45	O=C(CN1CCOCC1)Nc1cccc(Br)c1	8%
46	COc1cccc(-n2nnc3c(=O)n(Cc4cccc(F)c4)cnc32)c1	-4%
47	CCn1c(NC2CCCCC2)nc2ccccc21	-5%
48	CC(C)c1nc2oc3c(N4CCN(C)CC4)ncnc3c2c2c1CCC2	121%
49	COC(=O)c1[nH]c2ccc(C)cc2c1NC(=O)CN1CCN(C(=O)c2ccccc2)CC1	120%
50	O=c1c(-c2cccc(Cl)c2)nc2cncnc2n1Cc1ccc(F)cc1	9%

# Continued:
nr	SMILES	AmpC nodet inh
51	Nn1c(Cc2cccc3ccccc23)nnc1SC1CCOC1=O (centres undefined)	-1%
52	CCOc1ccccc1NC(=O)CSc1nccn1-c1ccccc1	22%
53	COC(=O)c1[nH]c2cc(OC)ccc2c1N	6%
54	O=C1CSC(c2cccc(F)c2)N1c1ccccc1F (centres undefined)	-3%
55	Cc1cc2c3nonc3ccc2n1-c1ccccc1	-22%
56	O=C(O)CCCC(=O)Nc1ccc(Br)cc1C(=O)O	-1%
57	CCN(CC)/C(=N/O)NC(=O)NS(=O)(=O)c1ccc(C)cc1	-18%
58	CCc1c(O)nc(SCC(=O)N2CCOCC2)n(-c2ccccc2)c1=O	-6%
59	CCCn1c(SCC(=O)c2cc(OC)ccc2OC)nnc1C(C)C	73%
60	C1CCN(CC[C@@H]2CCCCN2)CC1	9%[5.75 µM]
61	O=c1c(-c2ccc(F)cc2)nc2cnc(N3CCNCC3)nc2n1Cc1cccs1	59%
62	Cc1cccc2c(=O)cc(C)n(CC(=O)N3CCOCC3)c12	-13%
63	CCOC(=O)c1cccc(NC(=O)Cn2cc3c(n2)CCC(C)C3)c1 (centres undefined)	23%
64	Cc1c(C(N)=O)sc(N)c1C(=O)OC(C)C	-1%
65	COCC(C)n1c(SCC(=O)N2CCCCC2)nc2ccccc2c1=O (centres undefined)	70%
66	C/C(O)=C(\C#N)c1nnc2n1CCCCC2	-10%
67	Clc1ccccc1C1=Nn2c(nnc2-c2ccncc2)SC1	10%
68	Oc1cccnc1CN1CCCCC1	12%[5.75 µM]
69	Nc1ccc(S(N)(=O)=O)cc1	2%
70	O=C(C1CCN(S(=O)(=O)N2CCC3(CC2)OCCO3)CC1)N1CCC(Cc2ccccc2)CC1	146%
71	COc1cccc(C(c2nnnn2Cc2ccccc2)N2CCN(C3CCCC3)CC2)c1OC (centres undefined)	68%
72	COc1cccc(-c2cc(C(=O)N3CC4(C)CC3CC(C)(C)C4)no2)c1 (centres undefined)	42%
73	CCOc1ccc(C(=O)Nc2ccc3c(c2)OCO3)cc1OCC	0%
74	Cc1ccc(N2C(=O)NC(=O)C3(Cc4ccccc4N4CCN(c5ccccc5)CC43)C2=O)cc1 (centres undefined)	-6%
75	O=C1Cc2ccccc2C(c2ccccc2)N1 (centres undefined)	11%
76	C[C@H]1CN(S(=O)(=O)c2cccc3cnccc23)CCN1	1%
77	C=CCn1c(COc2cccc3ccc(C)nc23)nnc1SCC(N)=O	27%
78	O=C(Cn1cnc2c(oc3ccccc32)c1=O)N1CCCc2ccccc21	41%
79	CCOC(=O)c1sc(SCC(=O)Nc2ccc(N(C)C)cc2)nc1N	3%
80	O=C(CSc1nnnn1-c1ccccc1)Nc1ccc(Cl)cn1	-5%

# Compounds listed so far with a thiophene ring, fused or not (4):
nr	SMILES	AmpC nodet inh
27	CN(C)CCCN(C(=O)c1cccs1)c1nc(-c2ccccc2)cs1	65%
33	O=C(Cc1cccs1)Nc1nncs1	-18%
61	O=c1c(-c2ccc(F)cc2)nc2cnc(N3CCNCC3)nc2n1Cc1cccs1	59%
64	Cc1c(C(N)=O)sc(N)c1C(=O)OC(C)C	-1%

# Remaining list, next part.
nr	SMILES	AmpC nodet inh
81	COc1ccc2cc3cc(C(=O)Nc4ccc5c(c4)OCO5)oc3nc2c1	21%
82	COc1ccc2[nH]c(C)c(CN3CCCC(C)C3)c(=O)c2c1 (centres undefined)	-18%
83	NC(=O)c1nn(-c2ccccc2)nc1NC(=O)CN1CCCCC1	-7%
84	CCN1c2ccccc2NC2N=C(OC)C(c3ccccc3)C21 (centres undefined)	57%
85	CC1CN(CC(O)COc2ccccc2C(C)(C)C)CC(C)O1 (centres undefined)	70%
86	N#C/C(Cn1c[n+](NC(=O)Nc2ccccc2)cn1)=N/O	13%
87	CCOc1ccc(C(=O)NCCn2cc(SCC(=O)Nc3cc(C)on3)c3ccccc32)cc1	-10%
88	N[C@@H](Cc1cc(CP(=O)(O)O)cc(-c2ccccc2Cl)c1)C(=O)O	18%
89	Nc1c(Br)cc(Br)cc1CNC1CCC(O)CC1 (centres undefined)	-9%[12.8 µM]
90	CC(C)CNC(=O)C1CCCN(S(=O)(=O)c2ccc(-n3cnnn3)cc2)C1 (centres undefined)	1%
91	CCC(C)N1C(=O)CCC1C(=O)NCc1ccc2c(c1)OCO2 (centres undefined)	2%
92	COc1cc(CNc2ccc3[nH]c(=O)[nH]c3c2)cc(Cl)c1OCC(=O)NC(C)(C)C	52%
93	O=C(CSc1nc(-c2ccc(F)cc2)cs1)N1CCN(C(=O)c2ccco2)CC1	81%
94	COc1ccc(/C=C(\C#N)C(N)=O)c(OC)c1	-9%[5.75 µM]
95	O=C(c1ccc2c(c1)OCO2)N1CCN(c2ccc(Cl)cc2)CC1	52%
96	COc1ccccc1OCCC(=O)OCCN1C(=O)c2ccccc2C1=O	28%
97	COc1ccc(-c2nnc(SCC(=O)c3cc(C)n(Cc4cccs4)c3C)o2)cc1	25%
98	c1csc(-c2nn3c(Cn4nnc5ccccc54)nnc3s2)c1	-4%
99	CCN1CCn2c3c(c4cc(C)ccc42)CCCC31 (centres undefined)	26%
100	CN(c1ccccc1C(=O)NCc1ccco1)S(C)(=O)=O	4%

# Reprinted: compounds 95 to 98
nr	SMILES	AmpC nodet inh
95	O=C(c1ccc2c(c1)OCO2)N1CCN(c2ccc(Cl)cc2)CC1	52%
96	COc1ccccc1OCCC(=O)OCCN1C(=O)c2ccccc2C1=O	28%
97	COc1ccc(-c2nnc(SCC(=O)c3cc(C)n(Cc4cccs4)c3C)o2)cc1	25%
98	c1csc(-c2nn3c(Cn4nnc5ccccc54)nnc3s2)c1	-4%

# The results go on:
nr	SMILES	AmpC nodet inh
101	O=c1cc(CO)oc(CN2CCCC2)c1O	-7%
102	Cc1cc(Nc2ccc(F)cc2C)n2ncnc2n1	3%
103	CN(C)c1nc(-c2cccc(C#N)c2)nc2ccccc12	67%
104	CCCCCC(=O)Nc1ccc(S(=O)(=O)Nc2nccnc2OC)cc1	-1%
105	CCN(CC)c1ccc(NC(=O)CC2Oc3ccccc3NC2=O)c(C)c1 (centres undefined)	4µM*[single pt active]
106	Cc1[nH]c(=O)[nH]c(=O)c1S(=O)(=O)N(C)Cc1ccccc1	3%
107	CCC(C)Sc1nc2c(c(=O)n1C)SC(C)C2 (centres undefined)	2%
108	COC(=O)c1c(NS(C)(=O)=O)sc2c1CCCC2	6%
109	c1ccc(-c2n[nH]nc2-c2ccccc2)cc1	8%
110	COc1ccc(C(=O)NCc2c(CC(C)C)oc(C)c2C(=O)O)cc1	-9%
111	CCOc1ccc(CC(=O)C2C(=O)CCCC2=O)cc1OCC	1%
112	O=C(COC(=O)c1cccnc1)Nc1ccc(F)cc1	0%
113	CC(C)[N+](C)(CCOC(=O)C1c2ccccc2Oc2ccccc21)C(C)C	26%[12.8 µM]
114	CCC(=O)N1CCN(c2ccccc2NC(=O)COc2ccccc2Cl)CC1	89%
115	O=C(c1cc(C(F)(F)F)cc(C(F)(F)F)c1)N1CCC2(CCCN(Cc3nccs3)C2)CC1	4%
116	Cn1c(=O)c2c(O)cc(=O)[nH]c2n(-c2ccccc2)c1=O	-4%
117	Cc1nc2c(c(=O)n1Cc1ccco1)c1nc3ccccc3nc1n2Cc1ccccc1	56%
118	c1cc2c3c(cccc3c1)NC1(CCCCCC1)N2	-4%
119	COc1cccc(N2CCN(C(=O)CN(c3ccc(C)cc3)S(=O)(=O)c3c(C)n[nH]c3C)CC2)c1	120%
120	Cc1nn(-c2ccccc2)c2sc(C(=O)OC3CCOC3=O)cc12 (centres undefined)	101%
121	COc1ccc(Cc2nnc3n2N=C(c2cc4ccccc4o2)CS3)cc1OC	93%
122	CC(=O)N1C(=O)C2(Nc3ccccc3N2)c2ccccc21	5%
123	CCN(CCCNC(=O)CCCn1c(=O)[nH]c2ccccc2c1=O)c1cccc(C)c1	70%
124	CCN1CCC[C@@H](OC(=O)C(c2ccccc2)c2ccccc2)C1	9%[12.8 µM]
125	CCOC(=O)C1=C(CC)Nc2ccccc2N=C1NC(=O)Cn1cnc2ccccc2c1=O	1%
126	COc1ccc2cc3cc(C(=O)NCCN4CCN(c5ccccc5F)CC4)oc3nc2c1	80%
127	COc1ccc(-n2c(Cc3cccn3C)nnc2SCC(=O)Nc2ccc(F)cc2F)cc1	76%
128	COc1ccc(N2CCN(C(CNC(=O)c3ccco3)c3cccnc3)CC2)cc1 (centres undefined)	42%
129	CCn1nc(CC(=O)Nc2ccc(-n3cnnn3)c(C)c2)c2ccccc2c1=O	5%
130	O=C(Nc1cccc(-c2cn3cccnc3n2)c1)c1ccc2c(c1)OCO2	-4%
131	Cc1ccc2nc(NC(=O)CNS(=O)(=O)c3ccc(Br)s3)sc2c1	-23%
132	CCOC(=O)C1=C(C)NC(=O)NC1c1ccco1 (centres undefined)	-2%
133	C=CCOC(=O)COc1ccc2c(C)c(C)c(=O)oc2c1C	19%
134	COc1ccc(NC(=O)CCSc2nnc(C)s2)cc1	12%
135	COc1ccc2[nH]c(=O)c(CN(CCCN(C)C)C(=O)Nc3ccc(F)cc3)cc2c1	26%

# Only part of the results is shown; the hit share may differ from the screen's.
